UUG fidelity: yeast start codon fidelity modulation; 0.13% of 350,000 active; activity score, % at 18.7 µM; AID 602363; S. cerevisiae UUG-firefly luciferase reporter, luminescence/redox ratio;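 active means replicate mean at a twofold rise or more, about +100% in these data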;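 further: firefly luciferase made from a UUG start codon reports start codon fidelity; reporter light over untreated wells divided by growth signal over untreated wells; some hits fall short of that in this replicate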
The depositor's hits bear a star. The list is partial (hit frequency here may not be typical).

Sample of the layout, 3 compounds:
SMILES | UUG fidelity
O=S(=O)(c1ccc(F)cc1)N1CCCCN2[C@@H](CO)[C@@H](c3ccc(C#CC4CC4)cc3)[C@@H]2C1 | 19
C/C=C/c1ccc([C@H]2[C@@H](CNC(C)C)N(c3nc(CC)cs3)[C@H]2CO)cc1 | -13
COCCN(C[C@H]1N[C@H](CO)[C@@H]1c1ccc(-c2ccc(F)cc2)cc1)C(C)=O | 0

This part in full, previewed entries included:
SMILES | UUG fidelity
O=S(=O)(c1ccc(F)cc1)N1CCCCN2[C@@H](CO)[C@@H](c3ccc(C#CC4CC4)cc3)[C@@H]2C1 | 19
C/C=C/c1ccc([C@H]2[C@@H](CNC(C)C)N(c3nc(CC)cs3)[C@H]2CO)cc1 | -13
COCCN(C[C@H]1N[C@H](CO)[C@@H]1c1ccc(-c2ccc(F)cc2)cc1)C(C)=O | 0
CN1c2ccc(-c3cccc(F)c3)cc2[C@H]2[C@H](CCN2C(=O)C2CCCC2)[C@@H]1CO | 1
CN1C(=O)c2cc(NC(=O)Nc3ccc(F)cc3)ccc2OC[C@@H]2O[C@H](CC(=O)NC3CCC3)CC[C@@H]21 | 15
C[C@@H]1CN([C@@H](C)CO)C(=O)c2cc(NC(=O)Cc3ccccc3)ccc2O[C@@H]1CN(C)S(=O)(=O)c1cccs1 | 59
C[C@@H]1CN([C@H](C)CO)C(=O)CCCn2nncc2CO[C@@H]1CN(C)C(=O)c1ccc2ccn(C)c2c1 | -3
CCN(C[C@@H]1N[C@H](CO)[C@H]1c1ccc(-c2ccccc2)cc1)C(=O)COC | -3
C[C@H](CO)N1C[C@H](C)[C@H](CN(C)Cc2ccc(Oc3ccccc3)cc2)Oc2c(NC(=O)Nc3cccc4ccccc34)cccc2C1=O | 3
C[C@@H]1CN([C@@H](C)CO)C(=O)Cc2cc(NC(=O)NC3CCCCC3)ccc2O[C@@H]1CN(C)S(C)(=O)=O | 7
CO[C@@H]1CN(C)C(=O)c2cc(NS(=O)(=O)c3ccccc3)ccc2OC[C@H](C)NC[C@H]1C | -7
CC(C)NC(=O)N1CCCCN2[C@H](CO)[C@H](c3ccc(C#C[C@H](C)O)cc3)[C@H]2C1 | 5
CN1C(=O)c2cc(NC(=O)Nc3ccc(F)cc3)ccc2OC[C@H]2O[C@H](CC(=O)NC3CCC3)CC[C@H]21 | 11
COc1ccc(C(=O)Nc2ccc3c(c2)C(=O)N(C)C[C@@H](OC)[C@H](C)CN(C(C)=O)[C@@H](C)CO3)cc1 | -7
CC(=O)NC[C@H]1[C@H](c2ccc(-c3ccccc3)cc2)[C@H](CO)N1C(=O)C1CCC1 | -4
O=C(c1ccncc1)N1C[C@H]2[C@@H](c3ccccc31)[C@@H](CO)N2C(=O)CN1CCOCC1 | 9
CC(C)NC(=O)N1C[C@@H]2[C@H](c3ccccc31)[C@@H](CO)N2Cc1ccccc1 | -9
Cc1ccccc1S(=O)(=O)N1CC[C@H]2[C@H](CO)Nc3ccc(-c4ccc(F)cc4)cc3[C@H]21 | 7
O=C(C1CC1)N1CCCCN2[C@H](CO)[C@H](c3ccc(C#CC4(O)CCCC4)cc3)[C@@H]2C1 | 3
O=C(C[C@@H]1CC[C@H]2[C@@H](COC[C@@H](O)CN2C(=O)Nc2ccccc2)O1)NC1Cc2ccccc2C1 | 13
Cc1cc(C(=O)Nc2cccc3c2O[C@@H](CN(C)S(=O)(=O)c2c(C)noc2C)[C@@H](C)CN([C@@H](C)CO)C3=O)n(C)n1 | -8
CO[C@@H]1CN(C)C(=O)c2cc(NC(=O)C3CC3)ccc2OC[C@H](C)N(C(C)=O)C[C@H]1C | 6
O=C(NC[C@@H]1[C@H](c2ccccc2)[C@H](CO)N1C(=O)C1CC1)NC1CCCC1 | -6
C[C@H](CO)N1C[C@H](C)[C@H](CN(C)S(=O)(=O)c2ccc(Cl)cc2)Oc2c(NC(=O)Nc3ccccc3)cccc2C1=O | 3
C[C@@H](NC(=O)C[C@H]1CC[C@H]2[C@@H](COC[C@H](O)CN2C(=O)Nc2cc(Cl)cc(Cl)c2)O1)c1ccccc1 | -11
Cc1noc(C)c1NC(=O)N(C)C[C@@H]1Oc2ccc(NS(=O)(=O)c3cccs3)cc2C(=O)N([C@H](C)CO)C[C@H]1C | -4
COc1ccccc1-c1ccc2c(c1)[C@H]1[C@H](CCN1C(=O)C1CC1)[C@H](CO)N2 | -1
CN(C)C(=O)C[C@H]1CC[C@@H]2[C@@H](COc3ccc(NC(=O)Nc4cccc(Cl)c4)cc3C(=O)N2C)O1 | 11
C[C@H]1CN([C@@H](C)CO)C(=O)c2cc(NC(=O)CCN3CCOCC3)ccc2O[C@H]1CN(C)C(=O)NC1CCCCC1 | 5
O=C(C[C@H]1CC[C@@H]2[C@H](COC[C@H](O)CN2Cc2ccccc2F)O1)N1CCc2ccccc2C1 | 18
CN1c2ccc(-c3cccc(F)c3)cc2[C@@H]2[C@@H](CCN2C(=O)C2CC2)[C@H]1CO | 35
CO[C@@H]1CN(C)C(=O)c2cc(NC(=O)c3ccccc3)ccc2OC[C@H](C)N(C)C[C@@H]1C | 12
COc1ccc(CN(C)C[C@H]2Oc3ccc(NC(=O)CCN4CCOCC4)cc3CC(=O)N([C@@H](C)CO)C[C@@H]2C)cc1 | 7
CO[C@H]1CN(C)C(=O)c2ccc(NC(=O)C3CC3)cc2OC[C@@H](C)N(C(=O)c2ccccc2)C[C@H]1C | 11
C[C@H](CO)N1C[C@H](C)[C@@H](CN(C)CC2CCCCC2)Oc2ccc(NC(=O)Nc3ccccc3)cc2CC1=O | -2
CN(C)C(=O)c1ccc(-c2ccc([C@H]3[C@H]4CN(C(=O)C5CC5)CCCCN4[C@H]3CO)cc2)cc1 | -6

Shown as comma-separated lines: two of the compounds above
SMILES,UUG fidelity
CN(C)C(=O)c1ccc(-c2ccc([C@H]3[C@H]4CN(C(=O)C5CC5)CCCCN4[C@H]3CO)cc2)cc1,-6
COc1ccc(CN(C)C[C@H]2Oc3ccc(NC(=O)CCN4CCOCC4)cc3CC(=O)N([C@@H](C)CO)C[C@@H]2C)cc1,7

(further entries)
SMILES | UUG fidelity
CCCNC(=O)Nc1ccc2c(c1)OC[C@@H](C)N(Cc1cncnc1)C[C@@H](C)[C@@H](OC)CN(C)C2=O | -1
CN1c2ccc(-c3cccc(C#N)c3)cc2[C@H]2[C@H](CCN2S(=O)(=O)c2ccccc2)[C@@H]1CO | -10
C[C@H](CO)N1C[C@H](C)[C@H](CN(C)S(=O)(=O)c2cccs2)Oc2ccc(NC(=O)Cc3ccccc3)cc2C1=O | 20
CCS(=O)(=O)Nc1ccc2c(c1)C(=O)N(C)C[C@@H](OC)[C@@H](C)CN(C(=O)CN(C)C)[C@H](C)CO2 | -9
CN1CCCCN2[C@H](CO)[C@H](c3ccc(-c4cccnc4)cc3)[C@@H]2C1 | 0
COc1ccccc1CN1[C@@H]2CN(C(=O)C3CCCC3)c3ccccc3[C@@H]2[C@@H]1CO | 1
COc1ccc(NC(=O)N2C[C@H]3[C@@H](c4ccccc42)[C@H](CO)N3C(=O)C2CCCC2)cc1 | 35
CCCNC(=O)N1[C@H](CO)[C@H](c2ccccc2)[C@H]1CNC(C)=O | -10
CN(C)C(=O)C[C@@H]1C[C@H]2c3cc(NS(=O)(=O)c4ccccc4)ccc3O[C@H]2[C@H](CO)O1 | -2
Cc1cccc(S(=O)(=O)N2CCCCN3[C@@H](CO)[C@H](c4ccc(-c5ccncc5)cc4)[C@@H]3C2)c1 | -4
COc1ccccc1-c1ccc([C@@H]2[C@@H](CO)N3CCCCN(Cc4ccncc4)C[C@H]23)cc1 | -10
CCS(=O)(=O)Nc1ccc2c(c1)C(=O)N(C)C[C@H](OC)[C@H](C)CN(Cc1nccs1)[C@@H](C)CO2 | -13

Quoted from the results shown, 5 compounds:
SMILES | UUG fidelity
CCCNC(=O)N1[C@H](CO)[C@H](c2ccccc2)[C@H]1CNC(C)=O | -10
CN(C)C(=O)C[C@@H]1C[C@H]2c3cc(NS(=O)(=O)c4ccccc4)ccc3O[C@H]2[C@H](CO)O1 | -2
Cc1cccc(S(=O)(=O)N2CCCCN3[C@@H](CO)[C@H](c4ccc(-c5ccncc5)cc4)[C@@H]3C2)c1 | -4
COc1ccccc1-c1ccc([C@@H]2[C@@H](CO)N3CCCCN(Cc4ccncc4)C[C@H]23)cc1 | -10
CCS(=O)(=O)Nc1ccc2c(c1)C(=O)N(C)C[C@H](OC)[C@H](C)CN(Cc1nccs1)[C@@H](C)CO2 | -13

Next section:
SMILES | UUG fidelity
O=S(=O)(c1ccccc1)N1CCCCN2[C@@H](CO)[C@@H](c3ccc(C#Cc4ccccn4)cc3)[C@@H]2C1 | 14
CC=Cc1ccc2n(c1=O)C[C@@H]1[C@@H](CO)[C@H](C(=O)Nc3ccc(-c4ccccc4)cc3)N(CC)[C@H]21 (mixture of isomers) | -4
C[C@H](CO)N1C[C@H](C)[C@H](CN(C)Cc2ccc(C(=O)O)cc2)Oc2c(NC(=O)Nc3ccc(F)cc3)cccc2C1=O | -7
CO[C@H]1CN(C)C(=O)c2cc(NC(=O)Nc3cc(F)ccc3F)ccc2OC[C@@H](C)N(C(=O)c2cnccn2)C[C@H]1C | 5
CCCNC(=O)C[C@@H]1CC[C@H]2[C@@H](COC[C@H](O)CN2Cc2ccncc2)O1 | -8
COCC(=O)NC[C@H]1[C@@H](c2ccccc2)[C@@H](CO)N1C(C)=O | 5
O=C(Nc1ccccc1F)N1CCCCN2[C@H](C1)[C@H](c1ccc(C3=CCCC3)cc1)[C@@H]2CO | -3
CCCNC(=O)Nc1ccc2c(c1)OC[C@@H](C)N(C(=O)C1CCCCC1)C[C@@H](C)[C@H](OC)CN(C)C2=O | 2
CN1c2ccc(C3=CCCCC3)cc2[C@@H]2[C@@H](CCN2C(=O)Nc2cc(F)ccc2F)[C@@H]1CO | -7
Cc1noc(C)c1NC(=O)Nc1ccc2c(c1)CC(=O)N([C@H](C)CO)C[C@@H](C)[C@@H](CN(C)Cc1ccc(Cl)c(Cl)c1)O2 | 5
O=C(NCC1CCCCC1)[C@@H]1N[C@@H]2c3ccc(C4=CCCCC4)c(=O)n3C[C@@H]2[C@H]1CO | 6
CC(=O)N1C[C@@H]2[C@H](c3ccccc31)[C@H](CO)N2C(=O)c1ccc(F)cc1 | 17
O=C(C[C@H]1CC[C@@H]2[C@H](COC[C@H](O)CN2C(=O)c2ccncc2)O1)NCc1ccc(-c2ccccc2)cc1 | 29
COc1ccc(C#Cc2ccc([C@H]3[C@@H](CO)N4CCCCN(C(=O)c5ccncc5)C[C@@H]34)cc2)cc1 | 7
O=C(c1ccc(F)cc1)N1CCCCN2[C@@H](CO)[C@H](c3ccc(-c4ccccc4)cc3)[C@@H]2C1 | -8
Cc1cccc(S(=O)(=O)N2C[C@@H]3[C@H](c4ccccc42)[C@H](CO)N3C(=O)C2CC2)c1 | 0
Cn1cnc(S(=O)(=O)N2CCCCN3[C@@H](CO)[C@H](c4ccc(-c5cccc(F)c5)cc4)[C@@H]3C2)c1 | -15
Cc1cccc(S(=O)(=O)N(C)C[C@@H]2OCc3ccccc3-c3c(n(C)c4ccccc34)C(=O)N([C@@H](C)CO)C[C@H]2C)c1 | 5
CN1C(=O)c2cc(NC(=O)Cc3ccccc3)ccc2OC[C@H]2O[C@H](CC(=O)NC3CCC3)CC[C@H]21 | 5
CO[C@H]1CN(C)C(=O)c2ccc(NC(=O)Nc3ccccc3)cc2OC[C@H](C)NC[C@H]1C | 2
C[C@H]1CN([C@@H](C)CO)C(=O)c2cccc(NS(=O)(=O)c3ccc(F)cc3)c2O[C@H]1CN(C)Cc1ccc2c(c1)OCO2 | 8
COc1ccc(S(=O)(=O)N2CC[C@H]3[C@@H](CO)N(C)c4ccc(C5=CCCCC5)cc4[C@H]32)cc1 | -2
COc1ccc(NC(=O)N2CCCCN3[C@@H](CO)[C@@H](c4ccc(-c5ccccc5C)cc4)[C@@H]3C2)cc1 | -8
Cc1ccccc1-c1cnc2c(c1)C(=O)N([C@@H](C)CO)C[C@H](C)[C@@H](CN(C)CC1CCCCC1)O2 | 12
CCN(C[C@@H]1N[C@@H](CO)[C@H]1c1ccc(-c2cccc(F)c2)cc1)C(=O)COC | -1
COc1cccc(-c2ccc3c(c2)[C@@H]2[C@@H](CCN2S(=O)(=O)c2ccccc2C)[C@@H](CO)N3)c1 | 2
C[C@H]1CN([C@@H](C)CO)C(=O)c2cccc(NC(=O)Nc3ccc4c(c3)OCO4)c2O[C@@H]1CN(C)S(=O)(=O)c1cccs1 | 8
CCC(=O)NC[C@H]1[C@@H](c2ccc(-c3cccc(F)c3)cc2)[C@H](CO)N1C(=O)CC | 10
C[C@@H]1CN([C@H](C)CO)C(=O)c2ccccc2-c2ccccc2CO[C@H]1CN(C)C(=O)Oc1ccccc1 | 18
O=C(C1CCCC1)N1CCCCN2[C@H](C1)[C@@H](c1ccc(C#CC3(O)CCCC3)cc1)[C@@H]2CO | 17
CN1C(=O)c2cc(NS(=O)(=O)c3ccc(F)cc3)ccc2OC[C@H]2O[C@@H](CC(=O)NCC(F)(F)F)CC[C@H]21 | 8
CNC[C@@H]1Oc2ccc(NS(=O)(=O)c3cccs3)cc2C(=O)N([C@@H](C)CO)C[C@@H]1C | -5
O=S(=O)(c1ccccc1)N1C[C@@H]2[C@H](c3ccccc31)[C@@H](CO)N2Cc1ccc(F)cc1 | 4
CC(C)NC(=O)Nc1ccc2c(c1)C(=O)N([C@H](C)CO)C[C@H](C)[C@@H](CN(C)Cc1ccc(Oc3ccccc3)cc1)O2 | -5
COc1cccc(S(=O)(=O)N2C[C@@H](O)COC[C@@H]3O[C@@H](CC(=O)N4CCCCC4)CC[C@H]32)c1 | 5
COc1ccc(S(=O)(=O)N(C)C[C@H]2Oc3ccc(NC(=O)Cc4ccccc4)cc3C(=O)N([C@H](C)CO)C[C@H]2C)cc1 | 8
CC(C)NC(=O)N1CCCCN2[C@@H](CO)[C@H](c3ccc(C#CC4CC4)cc3)[C@@H]2C1 | 11

Screening data (PubChem)
